RE007 growth inh: less growth of the S. pombe RE007 Vpr strain; S. pombe RE007 Vpr strain, BacTiter-Glo ATP luminescence, 24 h; control for the full effect not named in the record; Potency, µM (top dose mostly 92.2 µM), without a hit: at the top dose activity change, negative = less growth; 360,000 tested, 0.21% active; AID 651644; active = well fitted falling curve with a large enough effect; inconclusive = small, poorly fitted or top-dose-only effect; inactive = no such curve, though single readings can be large or run the other way;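 also: % is scaled to controls: 0 for no effect and ±100 for the full control effect; nearly all actives have a fitted effect of over 50% in size; the assay follows cell death caused by Vpr and the record does not say whether a fall means rescue or toxicity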
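Fission yeast RE007 carrying one integrated HIV-1 vpr copy, seeded at OD 0.01 in PMG+AL medium with 23 nL pinned compound. Grown 24 h at 30 degrees; viability read by BacTiter-Glo luminescence after 5 min.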
2A StopGo: FMDV 2A StopGo reporter, luciferase signal; human cells with a luciferase reporter of 2A StopGo recoding; control for the full effect not named in the record; Potency, µM (top dose mostly 57.9 µM), without a hit: top-dose signal change, negative = less light; 410,000 tested, 1.2% active; AID 1159524; active = well fitted falling curve with a large enough effect; inconclusive = small, poorly fitted or top-dose-only effect; inactive = no such curve, though single readings can be large or run the other way; tested in HEK293T cells; also: % is scaled to controls: 0 for no effect and ±100 for the full control effect; nearly all actives have a fitted effect of over 45% in size; luciferase light after 4 h
SARS PLP yeast: inhibitors of SARS-CoV papain-like protease in yeast. 330,000 tested, 0.19% active. Potency, µM (titrated, usually from 32.9 µM), inactives show at the top dose activity, positive = growth rescue. S. cerevisiae expressing SARS-CoV PLpro, growth rescue; control for the full effect not named in the record; active means well fitted rising curve with a large enough effect; inconclusive means small, poorly fitted or top-dose-only effect; inactive means no such curve, though single readings can be large or run the other way; also: 0% is about no effect; nearly all actives have a fitted effect of over 55% in size; growth read by luminescence after 48 h
The depositor's hits bear a star; ? = inconclusive; & = joins results of further samples; [ ] = dose if it differs, or a comment. Potency is read from the fitted curve at half-maximal effect.

| canonical_smiles | 2A StopGo | SARS PLP yeast | RE007 growth inh |
| --- | --- | --- | --- |
| CCOc1ccc(CCNC(=O)CSC(=S)N2CCCC2)cc1OCC | -12% | 5% | 0% |
| CCCCCCCCCC(=O)N[C@@H]1c2cc(OC)c(OC)cc2C[C@H]1O | 0% | 14% | 2% |
| NC(=O)c1cc([N+](=O)[O-])ccc1NCc1ccc(F)cc1 | 44%[activator] | -5% | 4% |
| CCC(C)Sc1ccc(-c2nc3cnccn3c2NC2CCCCC2)cc1 (stereo not drawn) | ? | -1% | -12%&10% |
| Cn1cccc1C(=O)OCC(=O)Nc1cccc(S(=O)(=O)N2CCOCC2)c1 | 13% | 0% | 6% |
| Cc1cccc(C)c1Nc1c(-c2ccccn2)nc2ccccn12 | -29% | -25% | -16% |
| Cc1ccc(NS(=O)(=O)c2ccccc2[N+](=O)[O-])cc1C | 82%[activator] | 0% | -2% |
| CCCCN1CCNC[C@@H]1Cc1ccc(O)cc1 | 0% | -8% | -2% |
| C=CC[C@@H](CC(=O)OC(C)(C)C)C(=O)OC[C@H]1CCCN1C(=O)[C@@H](CC=C)CC(=O)N[C@H](CO)Cc1ccccc1 | ? | -2% | 11% |
| COc1ccc(S(=O)(=O)N(C)C[C@H]2Oc3c(NC(=O)c4ccncc4)cccc3C(=O)N([C@H](C)CO)C[C@@H]2C)cc1 | 2% | 7% | -15% |
| Clc1ccc(CN2CC[C@H]3C=CCc4cccc(c43)C2)cc1 | -26% | -6% | 0% |
| c1cc(-c2cc3cc4c(cc3cn2)OCO4)cs1 | 17% | -9% | -25% |
| CN(C(=O)Cn1cnc2sccc2c1=O)C1CCCCC1 | -15% | 2% | -6% |
| O=C(Nc1ccc2c(c1)OCO2)N1CCCC1 | 42%[activator] | 0% | -6% |
| Cc1ccc(C(=O)Nc2cc(S(=O)(=O)N3CCOCC3)ccc2N2CCCC2)cc1 | 2% | 2% | 1% |
| Cc1cc(=O)[nH]c(SCC(=O)Nc2c(C)n(C)n(-c3ccccc3)c2=O)c1C#N | -17% | 4% | 2% |
| O=C(Nc1ccc(O)cc1C(=O)O)c1ccc(NC(=O)c2ccco2)cc1 | -12% | -3% | 7% |
| COc1ccccc1C1=NN(C2=NN=C(N)Cc3ncnn32)C(O)(C(F)(F)F)C1 (stereo not drawn) | -18% | -2% | 17% |
| COc1ccc(/C=C/C(=O)OCC(=O)NC2CCCC2)cc1 | -16% | -7% | -12% |
| COc1cc2c(cc1OC)[C@@H](NC(=O)C(C)C)[C@H](O)C2 | -19% | 6% | -4% |
| COc1ccc(NC(=O)Nc2ccc3c(c2)C(=O)N([C@H](C)CO)C[C@H](C)[C@@H](CN(C)S(=O)(=O)c2ccc(OC)cc2)O3)cc1 | -14% | 6% | 4% |
| COc1cc(F)c(C2=CC(=O)C[C@H](c3ccc(F)cc3)C2)cc1F | 10% | -17% | 15% |
| C[C@@H]1NC(=O)OC1c1ccco1 (stereo partly drawn) | -7% | -1% | -2% |
| CCC1(c2ccccc2)NC(=O)N(CC(=O)Nc2cccc(S(=O)(=O)N3CCCC3)c2)C1=O (stereo not drawn) | 10% | -4% | 2% |
| CC(NC(=O)COC(=O)CNS(=O)(=O)/C=C/c1ccccc1)c1ccccc1 (stereo not drawn) | -1% | 3%[6.58 µM] | 2% |
| COc1ccccc1NS(=O)(=O)c1ccc(O)c(C(=O)OCC(=O)N2c3ccccc3CC2C)c1 (stereo not drawn) | -16% | 2% | 0% |
| Cc1ccc(S(=O)(=O)N2CCN(Cc3ccccc3)CC2)s1 | -9% | -1% | 17% |
| CN(C(=O)CSc1nc2ccc(Cl)cc2[nH]1)C1CCS(=O)(=O)C1 (stereo not drawn) | -4% | 10% | -5% |
| CCCN=C1N(CC)C[C@@H]2[C@@H]3C(=O)N(C)C(=O)[C@@H]3[C@](C)(C(=O)OC)N12 | 0% | 5% | 1% |
| CC(C)N(C(=O)[C@H]1C[C@H](CC(=O)NCCc2ccccn2)C(=O)N2CCc3c([nH]c4cc(-c5ccco5)ccc34)[C@]12C)C(C)C | ? | -4% | -10% |

Fetched one by one from the entries so far (7):
| canonical_smiles | 2A StopGo | SARS PLP yeast | RE007 growth inh |
| --- | --- | --- | --- |
| COc1cc2c(cc1OC)[C@@H](NC(=O)C(C)C)[C@H](O)C2 | -19% | 6% | -4% |
| Cc1cc(=O)[nH]c(SCC(=O)Nc2c(C)n(C)n(-c3ccccc3)c2=O)c1C#N | -17% | 4% | 2% |
| COc1ccc(/C=C/C(=O)OCC(=O)NC2CCCC2)cc1 | -16% | -7% | -12% |
| COc1ccccc1NS(=O)(=O)c1ccc(O)c(C(=O)OCC(=O)N2c3ccccc3CC2C)c1 (stereo not drawn) | -16% | 2% | 0% |
| CCCN=C1N(CC)C[C@@H]2[C@@H]3C(=O)N(C)C(=O)[C@@H]3[C@](C)(C(=O)OC)N12 | 0% | 5% | 1% |
| CCC1(c2ccccc2)NC(=O)N(CC(=O)Nc2cccc(S(=O)(=O)N3CCCC3)c2)C1=O (stereo not drawn) | 10% | -4% | 2% |
| Cc1ccc(S(=O)(=O)N2CCN(Cc3ccccc3)CC2)s1 | -9% | -1% | 17% |

Complete entries, quoted from the list.
Record of `COc1ccc(NC(=O)Nc2ccc3c(c2)C(=O)N([C@H](C)CO)C[C@H](C)[C@@H](CN(C)S(=O)(=O)c2ccc(OC)cc2)O3)cc1` → 2A StopGo: -14%; SARS PLP yeast: 6%; RE007 growth inh: 4%
Record of `Cc1ccc(S(=O)(=O)N2CCN(Cc3ccccc3)CC2)s1` → 2A StopGo: -9%; SARS PLP yeast: -1%; RE007 growth inh: 17%

Other compounds
| canonical_smiles | 2A StopGo | SARS PLP yeast | RE007 growth inh |
| --- | --- | --- | --- |
| Cc1ccc(S(=O)(=O)N(C)C)cc1NC(=O)c1cc(-c2ccncc2)nc2ccccc12 | ? | -1% | 13% |
| COc1ccc(NC(=O)CSc2n[nH]c(C)c2[N+](=O)[O-])cc1 | 0% | 1% | -16% |
| Cc1ccc(NCc2n[nH]c(=S)n2-c2ccccc2)c(C)c1 | -8% | -5% | 6% |
| COc1ccc(CNC[C@H]2O[C@@H](n3cnc4c(N)ncnc43)[C@H](O)[C@@H]2O)cc1OC | -5% | 21% | -5% |
| Nc1nc(NC(=O)c2ccc(F)cc2)ns1 | 8% | 0% | -2% |
| Nc1c(Cl)cc(C2=NCCn3nc4ccccc4c32)cc1Cl | -22% | -24% | -1% |
| O=C(OCC(=O)N1CCC(c2ccccc2)=N1)c1ccc(Cl)s1 | -11% | -5% | -3% |
| CN1CCC(N(C)S(=O)(=O)c2ccc(NC(=O)COc3ccc(Cl)cc3)cc2)CC1 | -28% | 0% | 5% |
| O=C1C=C(c2cccc(Cl)c2)C[C@@H](c2ccc3c(c2)OCO3)C1 | -12% | -2% | 5% |
| CC(=O)Nc1ccc(C=NNc2ccc([N+](=O)[O-])cc2S(=O)(=O)Nc2ccccc2C(=O)O)cc1 | -14% | -14% | 5% |
| Cn1cncc1C#Cc1ccc2cc(CCO)oc(=O)c2c1 | 14% | -1% | -3% |
| Cn1c(-c2ccc(C(F)(F)F)cc2)cc2onc(-c3ccccc3)c2c1=O | 34%[activator] | -15% | 2% |
| O[C@@H](c1cc(C(F)(F)F)nc2c(C(F)(F)F)cccc12)[C@H]1CCCCN1 | -25% | -6% | -17% |
| Cc1ccccc1-c1nnn(Cc2cccc(S(=O)(=O)N3CCOCC3)c2)n1 | ? | 0% | -6% |
| CCN(c1ccccc1)S(=O)(=O)c1ccc(C(=O)NCC(=O)Nc2ccc(F)c(F)c2F)cc1 | -24% | -3% | 5% |

Quoted from the listing.
`COc1ccc(CNC[C@H]2O[C@@H](n3cnc4c(N)ncnc43)[C@H](O)[C@@H]2O)cc1OC` in RE007 growth inh: -5%
`CCC(C)Sc1ccc(-c2nc3cnccn3c2NC2CCCCC2)cc1` (stereo not drawn) in RE007 growth inh: -12%&10%
`COc1ccccc1NS(=O)(=O)c1ccc(O)c(C(=O)OCC(=O)N2c3ccccc3CC2C)c1` (stereo not drawn) in RE007 growth inh: 0%

Carrying on.
| canonical_smiles | 2A StopGo | SARS PLP yeast | RE007 growth inh |
| --- | --- | --- | --- |
| Cc1ccc(C(=O)CN(CCC(=O)O)S(=O)(=O)c2ccc([N+](=O)[O-])cc2)cc1 | -10% | 0% | -10% |
| COc1cc(/C=C/C(=O)OCC(=O)N(C)CC(=O)Nc2ccc(F)cc2)ccc1OC(F)F | -25% | 0% | -12% |
| Cc1cc(C)c2nc(N3C(=O)C(O)=C(C(=O)c4ccco4)C3c3cccc(O)c3)sc2c1 (stereo not drawn) | 7% | 3% | 4% |
| Cc1ccccc1-[n+]1c(-c2ccccc2)cc(-c2ccccc2)cc1-c1ccccc1 | 10µM* | 1% | -20% |
| O=C(c1ccccc1)c1ccc(C(=O)N2CCN(c3ccc(O)cc3)CC2)cc1 | -2% | -12% | 9% |
| COc1ccc(C2CC(c3ccc(C(F)(F)F)cc3)=NN2c2ccc(S(N)(=O)=O)cc2)cc1 (stereo not drawn) | -3% | -2% | 0% |
| Cc1noc(C)c1C(=O)Nc1cccc(S(=O)(=O)N2CCOCC2)c1 | -15% | -4% | -1% |
| Cc1ccc(Cl)cc1NC(=O)c1ccccn1 | 43%[activator] | -4% | -21% |
| Cc1cccc([C@@H]2[C@@H]3C(=O)N(Cc4ccccc4)C(=O)[C@@H]3[C@]3(Cc4ccccc4)C(=O)N(c4cccc(Cl)c4)C(=O)N23)c1 | -27% | -1% | 25% |
| O=C(Cn1cnc2c(NC(=O)OCc3ccccc3)ncnc21)NCc1ccccn1 | 1% | -16% | 35% |
| O=C1Nc2ccccc2N(O)N1c1cc(-c2ccccc2)[nH]n1 | 1% | 0% | -3% |
| Cc1c(NC(=O)c2ccc(NS(=O)(=O)c3ccc(F)c(F)c3)cc2)c(=O)n(-c2ccccc2)n1C | 6% | -2% | 14% |
| O=c1[nH][nH]cc1C=NCc1cccc(C(F)(F)F)c1 | -8% | -6% | 4% |
| COc1ccc(CNCCS(=O)(=O)NC2CCCC2)cc1 | -12% | 11% | -10% |
| O=C(COC(=O)c1ccc(F)cc1F)NC(=O)Nc1ccc2c(c1)OCCO2 | 41%[activator] | 2% | 5% |
| OC(c1ccccc1)(c1ccccc1)C1CCN(C(=S)Nc2ccc(F)cc2)CC1 | -25% | -2% | -13% |
| CC(C)(C)OC(=O)C[C@@H]1C/C=C\C[C@@H](CC(=O)NCCO)C(=O)N[C@H](Cc2c[nH]c3ccccc23)COC1=O | 8% | -5% | 3% |
| O=C1CCCC/C=C\C[C@H](CC(=O)N(CCO)Cc2ccccc2)C(=O)NC[C@H](c2ccccc2)O1 | 14% | 5% | 1% |
| COc1ccc(OCC(=O)OCC(=O)N2C(C)CCCC2C)cc1 (stereo not drawn) | -19% | -2% | 4% |
| COc1cc(/C=C/C(=O)OCC(=O)N2CCCc3ccccc32)ccc1OCC#N | 15% | 3% | -8% |
| COc1ccc(C2(C)NC(=O)N(CC(=O)c3cc(C)n(C4CC4)c3C)C2=O)cc1 (stereo not drawn) | -13% | 10% | -5% |
| CCOc1cc(N2CCOCC2)c(OCC)cc1NC(=O)COC(=O)C1CCCN1S(=O)(=O)c1ccccc1F (stereo not drawn) | -17% | -6% | 0% |
| CC(Sc1ncnc2sccc12)C(=O)Nc1ccc(C(N)=O)cc1 (stereo not drawn) | -7% | -1% | 4% |
| O=C(NCC(=O)N1CCN(c2ccc(C(F)(F)F)cn2)CC1)c1ccc(Br)o1 | ? | -3% | 11% |
| COc1ccc2[nH]c3c(c2c1)CCN1C(=O)C(CC(=O)NCc2ccco2)C[C@H](C(=O)N2CCOCC2)[C@@]31CCC1CCCC1 (stereo partly drawn) | 1% | -2% | 10% |
| CSc1nc(N)nc2c1ncn2CC(=O)NCCCc1ccccc1 | -17% | 0% | 2% |
| Cc1ccc(S(=O)(=O)N(C)C)cc1NC(=O)c1ccc(-n2cncn2)c([N+](=O)[O-])c1 | -14% | -29% | 0% |
| COc1ccc(-c2c(C#Cc3ccsc3)c3cc(-c4ccc5c(c4)OCCO5)ccc3n2C)cc1 | -18% | 3% | -10% |
| COc1ccc(-c2sc3cc4c(cc3c2-c2ccc3c(c2)OCCO3)OCO4)cc1 | -14% | -4% | 13% |

These rows are one share of the data; count on the stated rates, not on these rows.
